# Vaccinia mCherry = qHTS for Stage-Specific Inhibitors of Vaccinia Orthopoxvirus: mCherry Reporter Primary qHTS. Vaccinia virus mCherry reporter infection, fluorescence; about a quarter of the inactives have no number. Potency, µM (series often up to 36.5 µM), without a hit: at the top dose activity change, negative = inhibition, actives largely listed as inhibitors. actives 0.63% (n = 310,000). AID 720579, 2013; active = well fitted inhibition curve with a large enough effect; inconclusive = small, poorly fitted or top-dose-only effect; inactive = no such curve, though single readings can be large or run the other way; tested in A549 cells; further: nearly all actives have a fitted effect of over 35% in size; inactives centre near -10
# VACV Venus inh = qHTS for Stage-Specific Inhibitors of Vaccinia Orthopoxvirus: Venus Reporter Primary qHTS; Vaccinia virus Venus reporter expression, fluorescence; Potency, µM (highest dose often 36.5 µM), inactives show at the top dose activity change, negative = inhibition, most hits filed as inhibitors; actives 0.46% (n = 330,000); AID 720580, 2013; active means well fitted inhibition curve with a large enough effect; inconclusive means small, poorly fitted or top-dose-only effect; inactive means no such curve, though single readings can be large or run the other way; tested in A549 cells; further: nearly all actives have a fitted effect of over 30% in size; inactives centre near -10
# Active calls of the source: *; i = inactive; ? = inconclusive; . = not tested or not shown; & = joins results of further samples; [ ] = remark or other dose. On the % scale 0 is the no-effect control and ±100 the full control effect; potency means the concentration at half of the fitted maximal effect. Random draw from the library. Share with any hit: about 0.87%.
SMILES,Vaccinia mCherry,VACV Venus inh
Cc1oc2cc3oc(=O)c(CC(=O)NCCCC(=O)O)c(C)c3cc2c1C,-18%,4%
OC(COCCOc1ccc(Br)cc1)CN1CCN(Cc2ccccc2)CC1 (stereo unspecified),?,-27%
COc1ccc2c(c1)c1ncn(CCc3ccccc3)c(=O)c1n2C,-7%,-16%
Cc1ccc(F)c(S(=O)(=O)NC(=O)C2(C)CCN2C(=O)c2ccccc2)c1 (stereo unspecified),17%,7%
COc1ccc(NC(=S)NCCN2CCC(C)CC2)cc1Cl,-20%,-12%
Cc1cc(-c2ccccc2)c2c3c(c(-c4ccccc4)n2n1)c(=O)n(C)c(=O)n3C,i,8%
O=C(CC12CC3CC(CC(C3)C1)C2)Nc1ccccc1N1CCOCC1,i,-22%
CC1C(=O)N2CCCc3cc(NC(=O)C(=O)NCc4cccnc4)cc1c32 (stereo unspecified),-19%,-10%
CN(C)S(=O)(=O)c1ccc(NC(=O)COC(=O)c2n[nH]c3ccccc23)cc1,.,?
CCCC12CN3CC(C)(CN(C1)C3c1ccc3c(c1)OCO3)C2=O (stereo unspecified),.,-1%
COC(=O)C1=C(C)NC(C)=C(C(=O)OC)C1C(=O)OC1CCCCC1=O (stereo unspecified),i,-9%&-12%
O=C(Nc1nnc(S(=O)(=O)N2CCOCC2)s1)c1ccccc1Br,-1%,0%
CC1=C(C(=O)N2CCCCCC2)CC(CC(=O)NC2CCCCC2)C(=O)N1CCC1=CCCCC1 (stereo unspecified),-14%,-9%
COC1=C(Nc2ccccc2)C(=O)c2ccccc2C1=O,?,?
Cn1c(=O)c(C(=O)NNC(=O)c2ccccc2Cl)c(O)c2ccccc21,?,-14%
COc1ccc(C(=O)N2CCCC(Nc3ccc(F)c(F)c3)C2)c(OC)n1 (stereo unspecified),-3%,-9%
O=C(COC(=O)c1nc(Cl)ccc1Cl)c1ccc[nH]1,-19%,-7%
CC1CN=C(Nc2ccc(F)cc2)S1 (stereo unspecified),-9%,-6%
C=CCN1C(=O)C(CC(=O)Nc2ccccc2F)S/C1=N\c1nccs1 (stereo unspecified),23%,-2%
O=c1cc(-c2ccccc2)nc2nc(COc3ccccc3)[nH]n12,.,5%
CC(c1ccccc1F)n1cc(C(=O)Nc2ccc3nc[nH]c3c2)nn1 (stereo unspecified),-18%,-21%
O=[N+]([O-])c1ccccc1-c1cc(-c2ccccc2O)n[nH]1,-25%,-29%
CC(c1ccccc1)C1OCC(C[N+]2(C)CCCCC2)O1 (stereo unspecified),-11%,0%
NC(=O)NC(CC(=O)NCCc1ccc(S(N)(=O)=O)cc1)c1ccc(Cl)cc1 (stereo unspecified),-18%,-9%
CC(C)(C)C1CCc2nc(NC(=O)COc3ccccc3[N+](=O)[O-])sc2C1 (stereo unspecified),i,1%

# Taken from above.
# In VACV Venus inh, CC(C)(C)C1CCc2nc(NC(=O)COc3ccccc3[N+](=O)[O-])sc2C1 (stereo unspecified) reads 1%
# In VACV Venus inh, COc1ccc(C(=O)N2CCCC(Nc3ccc(F)c(F)c3)C2)c(OC)n1 (stereo unspecified) reads -9%

# Ordered by heavy-atom count (rising): some entries from above
SMILES,Vaccinia mCherry,VACV Venus inh
CC1CN=C(Nc2ccc(F)cc2)S1 (stereo unspecified),-9%,-6%
O=c1cc(-c2ccccc2)nc2nc(COc3ccccc3)[nH]n12,.,5%
OC(COCCOc1ccc(Br)cc1)CN1CCN(Cc2ccccc2)CC1 (stereo unspecified),?,-27%

# Further results follow.
SMILES,Vaccinia mCherry,VACV Venus inh
Cc1sc2ncn(CC(=O)Nc3ccc(F)cc3Cl)c(=O)c2c1S(=O)(=O)N1CCN(c2ncccn2)CC1,2%,-5%
O=[N+]([O-])c1ccc(NCCNS(=O)(=O)c2ccccc2)cc1,?,-5%
Cc1ccc(S(=O)(=O)CC(=O)N2CC(C)OC(C)C2)cc1 (stereo unspecified),-5%,2%
COc1ccc(S(=O)(=O)Nc2ccc(S(=O)(=O)N3CCCC3)cc2)cc1,i,-5%
CCc1nc2c(OCC(=O)C(C)(C)C)cccn2c1N(C)C(=O)c1ccccc1F,21%,-6%
C/C(CC1CC(COCCC(C)C)OC1=O)=N\NC(N)=S (stereo unspecified),-3%,-8%
Cc1cccc(CC2CC(=O)N(C3CCCCC3)C2=O)c1 (stereo unspecified),-20%,-21%
O=C(Nc1nc(-c2ccc(-c3ccccc3)cc2)cs1)c1cnccn1,-21%,-17%
O=C(NCCc1ccccc1)c1ccc2nc(CCc3ccccc3)oc2c1,-1%,1%
C/C(Cn1nnc2ccccc21)=N/OC(=O)c1c(F)cccc1F,i,-15%
Cc1ccc(S(=O)(=O)CCC(=O)N2CCN(c3nc4c(C)c(Cl)ccc4s3)CC2)cc1,-30%,-16%
CCN(CC)C(=O)Oc1ccc(OC(=O)N(CC)CC)cc1,-5%,-22%
Cc1ccc(-n2ncc3c(=O)n(CC(=O)NCC4CCCO4)cnc32)cc1 (stereo unspecified),.,-8%
CNCc1ccccc1OCc1ccccc1F,i,-2%
CCOC(=O)N1CCC(N2C(=O)c3cc(C(=O)NC4CCCCC4)ccc3C2O)CC1 (stereo unspecified),i,-5%
Cc1cc(C)c(S(=O)(=O)c2ccccc2)c(OC(=O)c2c(Cl)cc(Cl)cc2Cl)n1,?,?
Cc1cccc(NC(=O)c2sc3ncnc(N(C)C4CCCCC4)c3c2C)c1C,i,-5%
CN(Cc1nc(-c2ccncc2)no1)S(=O)(=O)c1ccc(Br)cc1,.,-22%
CCN(CC)S(=O)(=O)c1ccc(NN)nc1,7%,7%
Cc1c(-n2c(SC(C)C(=O)NC(N)=O)nc3ccccc3c2=O)c(=O)n(-c2ccccc2)n1C (stereo unspecified),-5%,-9%
COc1ccc(/C=C/C(=O)OCC(=O)Nc2cccc(C(C)=O)c2)cc1,-10%,-4%
CCOC(=O)CC(=O)CSc1nc(C)cc(C)c1C#N,-2%,-19%
CCCCOCCCNC(=O)N[C@@H](CC(C)C)C(=O)O,?,-1%
C[C@@]1(CO)[C@H](O)CC[C@@]2(C)[C@H]1CC[C@H]1C[C@@H]3C[C@@]12CC[C@]3(O)CO,-34%[60.7 µM],-34%[60.7 µM]
O=C(OCc1ccccc1)N(CCF)c1cn(Cc2ccccc2)c(=O)n(Cc2ccccc2)c1=O,i,-14%

# Continued (4 carried over from the part before).
SMILES,Vaccinia mCherry,VACV Venus inh
CCOC(=O)CC(=O)CSc1nc(C)cc(C)c1C#N,-2%,-19%
CCCCOCCCNC(=O)N[C@@H](CC(C)C)C(=O)O,?,-1%
C[C@@]1(CO)[C@H](O)CC[C@@]2(C)[C@H]1CC[C@H]1C[C@@H]3C[C@@]12CC[C@]3(O)CO,-34%[60.7 µM],-34%[60.7 µM]
O=C(OCc1ccccc1)N(CCF)c1cn(Cc2ccccc2)c(=O)n(Cc2ccccc2)c1=O,i,-14%
COc1cccc(CN2CCCN(S(=O)(=O)c3ccc(Br)cc3)CC2)c1,-10%,-1%
O=C(Nc1ccc2nc(-c3ccc(Br)o3)[nH]c2c1)c1cccs1,31%[activator],-11%
Cn1nnnc1SCC(=O)Nc1nn(-c2ccccc2)nc1C(N)=O,i,-23%
CC(=O)c1ccc(Nc2nc(-c3cccnc3)cs2)cc1,-2%,-7%
COc1ccc(CNCCC(c2ccccc2)c2ccc3c(c2)OCO3)cc1 (stereo unspecified),?,?
Cc1ccc(S(=O)(=O)Nc2cc(C(F)(F)F)ccc2N2CCOCC2)cc1,-17%,-17%
Cc1ccc(-n2c(N)c(C(N)=O)sc2=S)cc1,i,-13%
COc1cccc(N2CCN(C(=O)c3cnc4c(C)cccn4c3=O)CC2)c1,-16%,-4%
COc1ccc(-n2c(CNc3ccc(C)cc3)nnc2SCc2ccccc2)cc1,?,-24%
CC(C)(C)c1csc(N/N=C/c2cccnc2)n1,-9%,-17%
CCOP(=S)(OCC)SCSP(=S)(OCC)OCC,-15%,-15%
COc1ccc(Cn2ccc3nc(C)c(C(=O)Nc4ccc(OC)cc4OC)cc3c2=O)cc1,?,-27%
CC1(c2ccccc2Br)NC(=O)N(CC(=O)N2CCc3ccccc3C2)C1=O (stereo unspecified),i,-5%
c1ccc(-c2ccccc2OCCOCCN2CCc3ccccc3C2)cc1,?,-25%
O=C(Cc1c2ccccc2nc2ccccc12)c1ccccc1,0%,-19%
CC(C)CN1C(=O)C(=O)N(CC(=O)N(C)CC(=O)Nc2ccc(F)cc2)C1=O,-14%,-6%
CC(C)[C@H](NC(=O)CNC(=O)OC(C)(C)C)C(=O)N[C@H](C=O)C(C)C,-6%[60.7 µM],-4%[60.7 µM]
COc1ccc(CCNC(=O)c2c(N)n(CCN3CCOCC3)c3nc4ccccc4nc23)cc1,.,5%
CCC(=O)OCC(=O)Nc1ccc(OC)cc1[N+](=O)[O-],i,-4%
CC1(C)Cc2cccc(OCC(=O)OCC(=O)Nc3ccc(S(N)(=O)=O)cc3)c2O1,i,-2%
COc1ccc(C2CC(c3ccccc3)=NN2C(=O)CCC(=O)O)cc1 (stereo unspecified),-10%,-1%
CCOc1ccc(/C=C/C(=O)Nc2cccc(C(C)=O)c2)cc1,-24%,-21%
CCC(=O)Nc1nnc(SCC(=O)NCC2CCCO2)s1 (stereo unspecified),-17%,-21%
Cc1ccc(C)c(S(=O)(=O)c2cn(Cc3ccccc3)c3cc(N4CCCC4)c(F)cc3c2=O)c1,-17%,-25%
Cc1c(C(=O)N2CCN(c3ccc(F)cc3)CC2)sc2ncnc(N3CCN(c4ccccn4)CC3)c12,-14%,?
SMILES,Vaccinia mCherry,VACV Venus inh
Cc1ccc(O)c(-c2cc(-c3ccccc3[N+](=O)[O-])[nH]n2)c1,-28%,?
CCSc1nnc2nc(C)cc(C)n12,i,-1%
Cc1cccc(N2CCN(CC(=O)N(C3CCCC3)C3CCS(=O)(=O)C3)CC2)c1C (stereo unspecified),-13%,-9%
COc1cc(OC)c(C2=NOC(C(=O)Nc3c(C)nn(CC(=O)N4CCCC4)c3C)C2)cc1Cl (stereo unspecified),-24%,-10%
Cc1cc(O)c(C(=O)c2ccccc2C(=O)O)cc1C,.,-10%
COc1cccc(NC(=O)CSc2nccn2C2CCCC2)c1,-10%,-12%
CCC(=O)C1CCCN(C(=O)CCc2nnc(C3(c4ccc(Cl)cc4)CCC3)o2)C1 (stereo unspecified),-2%,-16%
CCCCCN(C(=O)CCC(=O)OC(C)C(=O)NCc1ccccc1)c1c(N)n(CCCC)c(=O)[nH]c1=O (stereo unspecified),-11%,1%
CCOc1cc2c(C#N)c(N3CCOCC3)nc(N)c2c(N)n1,.,?
O=S(=O)(c1cc(F)ccc1F)N1CCC2(CC1)OCCN2S(=O)(=O)c1cccs1,i,-7%
CCOC(=O)C1=NN(C(=O)Cc2ccccc2)C(O)(C(C)(C)C)C1 (stereo unspecified),i,6%
CCn1cc(C(=S)N2CCC(C(N)=O)CC2)c2ccccc21,-13%,-14%
O=C(CN1CCN(S(=O)(=O)c2ccc(Cl)cc2)CC1)Nc1ccc(N2CCOCC2)cc1,-11%,-3%
O=c1[nH]c(CN2CCN(c3ncccn3)CC2)nc2c(Br)cc(Br)cc12,30%[activator],-6%
O=C(COc1ccccc1[N+](=O)[O-])N(Cc1ccco1)c1ccccn1,-23%,-17%
C/C(=N\NC(=O)CSc1nc2ccccc2[nH]1)c1ccncc1,-3%,2%
CC(=O)/C=C/n1c(=S)oc2ccccc21,-28%,?
CCO/C(C)=N/n1c2nc3ccccc3nc2c2c(=O)n(C3CCCC3)c(C)nc21,i,-8%
O=c1[nH]nc(Br)c(=O)n1C(c1ccccc1)c1ccccc1,-27%,?
CCCSc1nnc2[nH]c(=O)cc(C)n12,i,2%
COC(=O)c1ccccc1COc1cccn2c(N(C)CC3CC3)c(C)nc12,i,-7%
CN(C)/C=C/C(=O)/C=C/c1cn(-c2ncc(C(F)(F)F)cc2Cl)c2ccccc12,.,?
Clc1cncc(Cl)c1N/N=C/c1ccncc1,?,?
Nc1nc2c(ncn2[C@@H]2O[C@H](COP(=O)(O)OP(=O)(O)O)[C@@H](O)[C@H]2O)c(=O)[nH]1,-18%,-31%
C=CC1CN(CC(=O)OC)S(=O)(=O)c2ccccc21 (stereo unspecified),i,-2%

# 2 of the compounds above, with two lines to a compound:
# Order of values – Vaccinia mCherry	VACV Venus inh
C=CCN1C(=O)C(CC(=O)Nc2ccccc2F)S/C1=N\c1nccs1 (stereo unspecified)
    23%	-2%
Clc1cncc(Cl)c1N/N=C/c1ccncc1
    ?	?

# Following part:
SMILES,Vaccinia mCherry,VACV Venus inh
COc1cccc(S(=O)(=O)NCc2ccc(C(=O)Nc3ccc(Cl)c(Cl)c3)cc2)c1,.,?
Cc1ccc(NC(=O)c2oc3ccccc3c2NC(=O)c2ccccc2C)cc1,-13%,-6%
COc1ccc(CNC(=O)C2CCN(S(=O)(=O)c3ccc4c(c3)C(C)(C)C(=O)N4C)CC2)cc1,i,-15%
CC(C)Cn1c(=O)c2ccccc2n2c(CCC(=O)NCc3ccccc3Cl)nnc12,-12%,-2%
COC1=CC(=O)C=C(OC)C1=O,-2%,-14%&4%
CNc1nc(N/N=C/c2ccc([N+](=O)[O-])cc2)nc(Nc2ccccc2)n1,?,?
O=C1C2CCCN2C(=S)N1c1cc(Cl)ccc1Cl (stereo unspecified),i,5%
COc1ccccc1NC(=S)NCc1ccccc1,i,2%
CC(=O)N1c2ccc(S(=O)(=O)NCCC(=O)Nc3cccc(Cl)c3)cc2CC1C (stereo unspecified),i[7.34 µM],0%[7.34 µM]
CCc1nnc(NC(=O)Cc2cc(OC)c(OC)c(OC)c2)s1,-12%,-25%
COc1ccccc1CNC(=O)C1CCN(S(=O)(=O)c2cn(C)cn2)CC1,i,-9%
